High-throughput results deposited in PubChem BioAssay by Broad Institute.
ID4 SMM: binders of human ID4 protein. AID 624137. 1.2% of 31,000 active. small molecule microarray, Flag-ID4 binding, fluorescence F/B. P47928. calls only;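 active = spot signal over background at p below 0.07 in all four prints; compounds were printed on slides so no solution concentration is given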;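 also: a binder raises fluorescence above local background on the spot; about 2 pmol printed per array spot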
Target sequence (P47928 whole entry, looked up): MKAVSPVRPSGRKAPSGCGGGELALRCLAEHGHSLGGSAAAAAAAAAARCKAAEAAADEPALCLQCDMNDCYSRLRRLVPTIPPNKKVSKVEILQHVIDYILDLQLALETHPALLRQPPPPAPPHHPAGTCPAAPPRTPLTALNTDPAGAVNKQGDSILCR
mut p53 SMM: binds human mutant p53 on microarray. AID 624136. calls only. 0.4% of 17,000 active. small molecule microarray binding, anti-GST fluorescence;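 active = compounds whose four printed spots each glow above background more than chance allows, each with a p-value under 7%; compounds were printed on slides so no solution concentration is given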;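 also: about 2 pmol printed per array spot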
STAT3 SMM: STAT3 (human) binding; Small molecule microarray, His-STAT3 binding, anti-His fluorescence; AID 624138; calls only; 0.2% of 17,000 active;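 active = compounds whose four printed spots each show fluorescence over background unusually high for their array block, chance value under 7%; compounds were printed on slides so no solution concentration is given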;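 also: about 2 pmol printed per array spot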
c-Myc SMM: binds human c-Myc on microarray. P01106. small molecule microarray, His-c-Myc binding, anti-His fluorescence. calls only. 1.5% of 17,000 active;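 active = spot fluorescence over background with P-value below 7% in all four replicate spots, showing protein binding; compounds were printed on slides so no solution concentration is given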;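 also: score is binary with 100 for all four spots passing and 0 otherwise; about 2 pmol printed per array spot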
Target sequence (P01106 whole entry, looked up): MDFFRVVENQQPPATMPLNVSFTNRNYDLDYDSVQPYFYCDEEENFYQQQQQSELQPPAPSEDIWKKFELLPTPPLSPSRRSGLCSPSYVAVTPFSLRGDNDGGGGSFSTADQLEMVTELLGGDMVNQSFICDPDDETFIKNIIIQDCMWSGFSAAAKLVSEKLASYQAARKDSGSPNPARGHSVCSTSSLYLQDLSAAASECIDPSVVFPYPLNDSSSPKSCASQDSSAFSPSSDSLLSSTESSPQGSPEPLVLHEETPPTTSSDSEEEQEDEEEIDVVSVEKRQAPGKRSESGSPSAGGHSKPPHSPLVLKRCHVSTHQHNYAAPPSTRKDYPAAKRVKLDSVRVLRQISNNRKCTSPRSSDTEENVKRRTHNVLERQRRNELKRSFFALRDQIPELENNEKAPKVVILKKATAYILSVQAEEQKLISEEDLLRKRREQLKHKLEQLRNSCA
Calls only; i = inactive; / = no result given; + = active, no number.

SMILES | ID4 SMM | mut p53 SMM | STAT3 SMM | c-Myc SMM
Cc1noc(C)c1NC(=O)N(C)C[C@H]1Oc2c(NS(=O)(=O)c3cn(C)cn3)cccc2C(=O)N([C@@H](C)CO)C[C@H]1C | i | i | i | i
C[C@@H]1CN([C@@H](C)CO)C(=O)c2cc(NS(C)(=O)=O)ccc2O[C@@H]1CN(C)C(=O)NC1CCCCC1 | i | i | i | i
CC(=O)c1ccccc1OCC(O)CN1CCN(c2ccccn2)CC1 (stereo unspecified) | i | i | i | i
C[C@@H]1CN([C@@H](C)CO)C(=O)c2cc(NC(=O)c3ccncc3)ccc2O[C@H]1CN(C)Cc1ccncc1 | / | i | i | i
Cc1ccc(S(=O)(=O)N(C)C[C@@H]2Oc3ccc(NC(=O)C4CC4)cc3CC(=O)N([C@@H](C)CO)C[C@@H]2C)cc1 | i | i | i | i
CNC[C@@H]1OCCCC[C@@H](C)Oc2ccc(NC(=O)Nc3cccc4ccccc34)cc2C(=O)N([C@H](C)CO)C[C@H]1C | i | i | i | i
C[C@H](CO)N1C[C@H](C)[C@H](CN(C)C(=O)Nc2ccccc2)Oc2ccc(NC(=O)CCC(F)(F)F)cc2CC1=O | i | i | i | i
CC1(C)CC(=O)C2=C(C1)N(CC1CCCO1)C(=O)C2(NC(=O)c1ccccc1)C(F)(F)F (stereo unspecified) | i | i | i | i
N#Cc1ccccc1CSc1nnc(CN2CCOCC2)n1-c1ccccc1 | i | i | i | i
CC1CCCN(CC(O)COCC2COc3ccccc3O2)C1 (stereo unspecified) | i | i | i | i
Cc1ccc2nc(-c3ccc(NC(=O)CN4C(=O)c5ccccc5C4=O)cc3)sc2c1 | i | i | i | i
Cc1noc(C)c1S(=O)(=O)Nc1ccc2c(c1)C(=O)N([C@@H](C)CO)C[C@@H](C)[C@H](CN(C)CC1CC1)O2 | i | i | i | i
C[C@H](CO)N1C[C@H](C)[C@H](CN(C)C(=O)Cc2ccccc2)OCCCC[C@H](C)Oc2ccc(NC(=O)c3ccncc3)cc2C1=O | i | i | i | i
C[C@H](CO)N1C[C@H](C)[C@@H](CN(C)S(=O)(=O)c2cn(C)cn2)Oc2c(NS(C)(=O)=O)cccc2C1=O | i | i | i | i
Cc1noc(C)c1S(=O)(=O)Nc1ccc2c(c1)CC(=O)N([C@H](C)CO)C[C@H](C)[C@H](CN(C)C(=O)NC(C)C)O2 | i | i | i | i

No new results follow: 2 of the compounds above.
SMILES | ID4 SMM | mut p53 SMM | STAT3 SMM | c-Myc SMM
CC(=O)c1ccccc1OCC(O)CN1CCN(c2ccccn2)CC1 (stereo unspecified) | i | i | i | i
C[C@@H]1CN([C@@H](C)CO)C(=O)c2cc(NC(=O)c3ccncc3)ccc2O[C@H]1CN(C)Cc1ccncc1 | / | i | i | i

Two entries picked at random from the list so far:
SMILES | ID4 SMM | mut p53 SMM | STAT3 SMM | c-Myc SMM
C[C@H](CO)N1C[C@H](C)[C@@H](CN(C)S(=O)(=O)c2cn(C)cn2)Oc2c(NS(C)(=O)=O)cccc2C1=O | i | i | i | i
Cc1ccc2nc(-c3ccc(NC(=O)CN4C(=O)c5ccccc5C4=O)cc3)sc2c1 | i | i | i | i

More results.
SMILES | ID4 SMM | mut p53 SMM | STAT3 SMM | c-Myc SMM
C[C@H](CO)N1C[C@H](C)[C@@H](CN(C)Cc2ccccc2)OCc2cnnn2CCCC1=O | i | i | i | i
Cc1noc(C)c1S(=O)(=O)Nc1cccc2c1O[C@H](CN(C)Cc1ccncc1)[C@H](C)CN([C@@H](C)CO)C2=O | i | i | i | i
O=C(CSc1nc2ccccc2s1)Nc1ccc2c(c1)OCCO2 | i | i | i | i
Cc1noc(C)c1NC(=O)N(C)C[C@@H]1Oc2c(NC(=O)c3ccncc3)cccc2C(=O)N([C@H](C)CO)C[C@@H]1C | i | i | i | i
C[C@@H]1CN([C@@H](C)CO)C(=O)c2cccc(NC(=O)C3CCOCC3)c2O[C@H]1CN(C)S(=O)(=O)c1cccs1 | i | i | i | i
COC(=O)c1c(NC(=O)CSc2ccccn2)sc2c1CCC2 | i | i | i | i
COc1cc(OC)c2c(=O)c(OC)c(-c3ccccc3)oc2c1 | / | i | i | i
CC1CCc2c(sc3nnn(CC(=O)Nc4cc(Cl)ccc4Cl)c(=O)c23)C1 (stereo unspecified) | i | i | i | i
O=C(COc1ccccc1Cl)Nc1ccc(C(=O)Nc2ccccc2C(=O)O)cc1 | i | i | i | i
COc1ccc(S(=O)(=O)N(C)C[C@H]2Oc3c(NC(=O)c4nc5ccccc5s4)cccc3C(=O)N([C@H](C)CO)C[C@H]2C)cc1 | / | i | i | i
O=C1C2(CO)C=C(Br)[C@H](C[C@@H]2c2ccccc2)[C@@]12CO2 | i | i | i | i
C[C@@H]1CN([C@H](C)CO)C(=O)c2cc(N(C)C)ccc2O[C@@H]1CN(C)Cc1ccc2c(c1)OCO2 | i | i | i | i
CNC[C@H]1Oc2c(NC(=O)c3ccncc3)cccc2C(=O)N([C@@H](C)CO)C[C@@H]1C | i | i | i | i
C=CC/C=C\C/C=C\CCCCCCCc1cccc(O)c1C(=O)O | i | i | i | i
O=C1N(Cc2ccccc2)Cc2ccccc2[C@@H]2OC(c3ccc(OCCCO)cc3)=N[C@]12CCS(=O)(=O)c1ccccc1 | / | i | i | i
C[C@@H]1CN([C@@H](C)CO)C(=O)c2cc(NC(=O)Nc3ccc4c(c3)OCO4)ccc2O[C@@H]1CN(C)S(=O)(=O)c1cn(C)cn1 | i | i | i | i
C[C@H]1CCCCO[C@@H](CN(C)C(=O)C2CCCCC2)[C@@H](C)CN([C@@H](C)CO)C(=O)c2cc(NS(=O)(=O)c3cn(C)cn3)ccc2O1 | i | i | i | i
CNC[C@H]1Oc2c(NC(=O)c3nc4ccccc4s3)cccc2C(=O)N([C@H](C)CO)C[C@@H]1C | i | i | i | i
C[C@H]1CN([C@@H](C)CO)C(=O)Cc2cc(NS(=O)(=O)c3ccccc3)ccc2O[C@@H]1CN(C)C(=O)Nc1ccc(F)cc1 | / | i | i | i
COc1cc(/C=C\C(=O)O)cc(OC)c1OC | / | i | i | i
c1ccc(-c2nc3ccc(Cc4ccc5nc(-c6ccccn6)c(-c6ccccn6)nc5c4)cc3nc2-c2ccccn2)nc1 | i | i | i | i
COC(=O)c1ccc(C2C(C(=O)c3ccco3)C(=O)C(=O)N2Cc2ccco2)cc1 (stereo unspecified) | i | i | i | i
O=C(NCc1cccnc1)c1cnn2c(C(F)F)cc(-c3ccccc3)nc12 | i | i | i | i
CC(C)NC(=O)N(C)C[C@@H]1Oc2ccc(NC(=O)CCC(F)(F)F)cc2C(=O)N([C@H](C)CO)C[C@H]1C | i | i | i | i
C[C@@H]1O[C@@H](Oc2cc(O)c3c(=O)c(O[C@@H]4O[C@@H](C)[C@H](O)[C@@H](O[C@@H]5OC[C@@H](O)[C@H](O)[C@H]5O)[C@H]4O[C@@H]4O[C@H](CO)[C@@H](O)[C@H](O)[C@H]4O)c(-c4ccc(O)cc4)oc3c2)[C@H](O)[C@H](O)[C@H]1O | / | i | i | i
CCOc1ccc(-n2nc3cc(C)c(NC(=O)c4cc(-n5cnnc5)ccc4Cl)cc3n2)cc1 | i | i | i | i
CC1(C)CC2/C(CO)=C\C=C[C@@](C)(O)CC[C@]21O (stereo partly specified) | / | i | i | i
C[C@H](CO)N1C[C@H](C)[C@@H](CN(C)Cc2ccncc2)Oc2c(NC(=O)C3CCOCC3)cccc2C1=O | i | i | i | i
C=CC(C)(C)c1[nH]cnc1/C=C1\NC(=O)C(C(C)C)NC1=O (stereo unspecified) | i | i | i | i
CCCC(O)C#Cc1cnc2c(c1)C(=O)N([C@H](C)CO)C[C@H](C)[C@H](CN(C)S(=O)(=O)c1ccc(OC)cc1)O2 (stereo partly specified) | i | i | i | i

Another view of some results above:
The line under a structure holds: ID4 SMM, mut p53 SMM, STAT3 SMM, c-Myc SMM
- CNC[C@H]1Oc2c(NC(=O)c3nc4ccccc4s3)cccc2C(=O)N([C@H](C)CO)C[C@@H]1C
→ i, i, i, i
- C[C@H]1CN([C@@H](C)CO)C(=O)Cc2cc(NS(=O)(=O)c3ccccc3)ccc2O[C@@H]1CN(C)C(=O)Nc1ccc(F)cc1
→ /, i, i, i
- COc1cc(/C=C\C(=O)O)cc(OC)c1OC
→ /, i, i, i

Next section:
SMILES | ID4 SMM | mut p53 SMM | STAT3 SMM | c-Myc SMM
CNC[C@@H]1Oc2c(NC(=O)Nc3c(C)noc3C)cccc2C(=O)N([C@@H](C)CO)C[C@@H]1C | i | i | i | i
COc1ccc(S(=O)(=O)Nc2cccc3c2O[C@H](CN(C)Cc2ccc4c(c2)OCO4)[C@@H](C)CN([C@@H](C)CO)C3=O)cc1 | i | i | i | i
C[C@@H]1CN([C@@H](C)CO)C(=O)c2cccc(NC(=O)Nc3ccc(C(F)(F)F)cc3)c2O[C@H]1CN(C)S(=O)(=O)c1ccc(Cl)cc1 | i | i | i | i
Cc1ccc(S(=O)(=O)N[C@@H](Cc2ccccc2)C(=O)CCl)cc1 | / | i | i | i
C=CC[C@]1(C(=O)NCCN2CCOCC2)COC(c2ccc(OCCCO)cc2)=N1 | / | i | i | i
Clc1cnccn1 | / | i | i | i
CCCCC[C@H](O)/C=C/[C@H]1C=CC(=O)[C@@H]1CCCCCCC(=O)O | i | i | i | i
C/C=C(/C)C(=O)O[C@@H]1Cc2c(ccc3ccc(=O)oc23)OC1(C)C | i | i | i | i
C[C@H](C[C@@H](O)[C@](C)(O)[C@H]1CC[C@@]2(O)C3=CC(=O)[C@@H]4C[C@@H](O)[C@@H](O)C[C@]4(C)C3CC[C@]12C)C(C)(C)O (stereo partly specified) | i | i | i | i
COC(=O)c1c(NC(=O)C2CC=CCC2C(=O)O)sc2c1CCC(c1ccccc1)C2 (stereo unspecified) | i | i | i | i
C[C@@H]1CN([C@H](C)CO)C(=O)Cc2cc(NC(=O)Nc3ccc(F)cc3)ccc2O[C@@H]1CN(C)S(=O)(=O)c1ccccc1 | / | i | i | i
Cc1noc(C)c1S(=O)(=O)Nc1ccc2c(c1)CC(=O)N([C@H](C)CO)C[C@H](C)[C@H](CN(C)C(=O)Nc1ccccc1)O2 | i | i | i | i
CC(C)NC(=O)N(C)C[C@H]1Oc2ccc(NC(=O)CCN3CCOCC3)cc2C(=O)N([C@@H](C)CO)C[C@H]1C | i | i | i | i
COc1cc([C@H]2OC[C@H]3[C@@H]2CO[C@@H]3c2ccc3c(c2)OCO3)cc(OC)c1OC | / | i | i | i
Cc1noc(C)c1S(=O)(=O)Nc1ccc2c(c1)C(=O)N([C@H](C)CO)C[C@@H](C)[C@@H](CN(C)C(=O)C1CCCCC1)OCCCC[C@H](C)O2 | / | i | i | i
C[C@@H]1CN([C@H](C)CO)C(=O)c2cc(NC(=O)Nc3ccc4c(c3)OCO4)ccc2O[C@@H]1CN(C)C(=O)Nc1ccc(F)cc1 | i | i | i | i
C[C@@H]1CN([C@@H](C)CO)C(=O)c2cc(NC(=O)Nc3cccc4ccccc34)ccc2O[C@H]1CN(C)C(=O)Nc1ccc2c(c1)OCO2 | i | i | i | i
C[C@H](CO)N1C[C@H](C)[C@@H](CN(C)Cc2ccncc2)Oc2ccc(NC(=O)Nc3ccccc3)cc2CC1=O | i | i | i | i
C[C@@H]1CN([C@@H](C)CO)C(=O)c2cc(NS(C)(=O)=O)ccc2O[C@@H](C)CCCCO[C@@H]1CN(C)C(=O)Nc1ccc2c(c1)OCO2 | i | i | i | i
Cc1noc(C)c1NC(=O)N(C)C[C@H]1OCCCC[C@H](C)Oc2ccc(N(C)C)cc2C(=O)N([C@@H](C)CO)C[C@@H]1C | i | i | i | i
CC1OC(OCC2OC(OCC3(C)C(O)CCC4(C)C3CCC3(C)C4CCC4C5=CC(C)(C)CCC5(C(=O)O)CCC43C)C(O)C(O)C2O)C(O)C(O)C1O (stereo unspecified) | / | i | i | +
Cc1noc(C)c1NC(=O)N(C)C[C@@H]1Oc2ccc(NC(=O)C3CC3)cc2CC(=O)N([C@H](C)CO)C[C@@H]1C | i | i | i | i
C[C@H]1CN([C@@H](C)CO)C(=O)CCCn2cc(nn2)CO[C@H]1CN(C)C(=O)Nc1ccc(-c2cccs2)cc1 | i | i | i | i
Cc1cc(CN2CCN(CCC#N)CC2)c(O)c(C2(C)CCCCC2)c1 | i | i | i | i
Cc1noc(C)c1NC(=O)Nc1ccc2c(c1)C(=O)N([C@@H](C)CO)C[C@H](C)[C@@H](CN(C)C(=O)NC1CCCCC1)O2 | i | i | i | i
C[C@@H]1CN([C@@H](C)CO)C(=O)c2cc(NC(=O)c3ccncc3)ccc2O[C@@H](C)CCCCO[C@@H]1CN(C)Cc1ccc(C(=O)O)cc1 | i | i | i | i
O=S(=O)(Nc1ncccn1)c1ccc(NC(=S)Nc2ccc3c(c2)OCCO3)cc1 | i | i | i | i
O=c1c2ccccc2nc2n1CCC2O (stereo unspecified) | i | i | i | i
Cc1noc(C)c1NC(=O)N(C)C[C@H]1Oc2ccc(N(C)C)cc2CC(=O)N([C@@H](C)CO)C[C@H]1C | i | i | i | i
Cc1noc(C)c1NC(=O)Nc1cccc2c1O[C@@H](CN(C)S(=O)(=O)c1cn(C)cn1)[C@@H](C)CN([C@H](C)CO)C2=O | i | i | i | i
CNC[C@@H]1OCCCC[C@H](C)Oc2ccc(NS(=O)(=O)c3c(C)noc3C)cc2C(=O)N([C@@H](C)CO)C[C@@H]1C | i | i | i | i
COc1cc2c(cc1OC)CN(C(=O)CSc1ncnc3sc(C)c(C)c13)CC2 | i | i | i | i
CC(C)NCc1ccccc1OCC(N)=O | i | i | i | i

A portion of the library; count on the stated rates, not on these rows.
